# Assay outcomes from PubChem BioAssay.
# StopGo RLuc – FMDV 2A StopGo reporter, Renilla signal; HEK cells with a luciferase reporter of 2A StopGo recoding; Potency, µM (series often up to 57.5 µM), for inactives: at the highest dose signal change, negative = less light; 0.32% of 120,000 active; active means well fitted falling curve with a large enough effect; inconclusive means small, poorly fitted or top-dose-only effect; inactive means no such curve, though single readings can be large or run the other way; note: nearly all actives have a fitted effect of over 55% in size; overnight with compound
# StopGo FLuc – lowers the firefly signal of an FMDV 2A StopGo reporter | HEK cells with a luciferase reporter of 2A StopGo recoding | Potency, µM (titrated, usually from 57.5 µM), for the others: at the highest dose signal change, negative = less light | 0.23% of 120,000 active | AID 1745856; active = well fitted falling curve with a large enough effect; inconclusive = small, poorly fitted or top-dose-only effect; inactive = no such curve, though single readings can be large or run the other way; note: nearly all actives have a fitted effect of over 60% in size; overnight with compound
# The depositor's hits bear a star; ? = inconclusive; & = joins results of further samples; [ ] = dose if it differs, or a comment. % is set by controls: 0 for no effect and ±100 for the full control effect; potency is the fitted concentration of half-maximal effect. The list is partial; the hit share may differ from the screen's.
SMILES,StopGo RLuc,StopGo FLuc
Cc1ccc(-c2nnc(Nc3ccccc3)c3ccccc23)cc1S(=O)(=O)NCc1nc2ccccc2[nH]1,-3%,4%
O=C(c1ccc(F)cc1)c1ccc(N2CCCCCC2)cc1,-2%,177%[activator]
CCCN1C(SCC(=O)Nc2cccc(Cl)c2C)=NS(=O)(=O)c2ccccc21,23%,-10%
CC(C)(CNC(=O)c1nn(Cc2ccccc2)c(=O)c2ccccc12)N1CCOCC1,90%[activator],17%
CCc1cccc(C)c1NC(=O)CCCn1c(C)c2cnn(-c3ccccc3)c(=O)c2c1C,-17%,-2%
O=C(Cn1c(=O)n(-c2cccc(Cl)c2)c(=O)c2sc3ccccc3c21)NC1CCCCC1,2%,-8%
Cc1ccc(C(=O)NCC(C)C)cc1,4%,12%
Cn1c(=O)c2[nH]c(N3CCN(CCO)CC3)nc2n(C)c1=O,-14%,-5%
CCCC(NC(=O)c1ccnc(Cl)c1)c1ccccc1 (stereo not given),26%,4%
Cc1ccc(NC(=O)c2sc3ccccc3c2Cl)cc1,-6%,136%[activator]
CC1CCCCN1C(=O)CSc1nc(-c2ccco2)cc(C(F)(F)F)n1 (stereo not given),20%,12%
CCOC(=O)c1c(NC(=O)COc2cccc(C(F)(F)F)c2)sc2c1CCC(C)C2 (stereo not given),-15%,-20%
COc1ccc(-c2c(C)oc3cc(OCCN4CCC(C(N)=O)CC4)ccc3c2=O)cc1OC,5%,17%
Cn1cccc1-c1cc2n(n1)CCC(=O)N2CCCC(=O)NCc1cccc(Cl)c1,-18%,-20%
CCC(=O)OC1=C(C(C)=O)N(C)S(=O)(=O)c2ccccc21,8%,-5%
Cc1ccc2nc(COc3ccccc3NC(=O)c3ccc(F)cc3)cc(=O)n2c1,18%,-16%
CCCCOc1ccc(C(=O)N2CCC(c3nc4ccccc4o3)CC2)cc1,19%&19%,0%&-22%
COC(=O)c1ccc(NC(=O)CSc2nccn2Cc2ccc(Cl)cc2)cc1,3%,-22%
COc1ccc(NC(=O)C2CCN(C3=NS(=O)(=O)C(c4ccc(C)c(C)c4)=C3C)CC2)cc1OC,11%,1%
Cn1nc(C(=O)Nc2cc(C(F)(F)F)cc(C(F)(F)F)c2)c2ccccc2c1=O,3%,2%

# Part of the list above in order of formula weight, ascending:
SMILES,StopGo RLuc,StopGo FLuc
Cc1ccc(C(=O)NCC(C)C)cc1,4%,12%
Cc1ccc(NC(=O)c2sc3ccccc3c2Cl)cc1,-6%,136%[activator]
COC(=O)c1ccc(NC(=O)CSc2nccn2Cc2ccc(Cl)cc2)cc1,3%,-22%
Cn1cccc1-c1cc2n(n1)CCC(=O)N2CCCC(=O)NCc1cccc(Cl)c1,-18%,-20%
CCCN1C(SCC(=O)Nc2cccc(Cl)c2C)=NS(=O)(=O)c2ccccc21,23%,-10%
COc1ccc(-c2c(C)oc3cc(OCCN4CCC(C(N)=O)CC4)ccc3c2=O)cc1OC,5%,17%

# Other structures:
SMILES,StopGo RLuc,StopGo FLuc
Cc1ccc(-c2ccnc(=S)[nH]2)cc1,11%,0%
COc1ccc(N(CC(=O)NCc2ccc(F)cc2)S(=O)(=O)c2c(C)noc2C)cc1,36%[activator],-4%
Cc1nc2nc3ccn(CCN(C)C)c(=O)c3c(-c3ccccc3)n2n1,-5%,18%
Nc1ccncc1N,-1%,-1%
Cc1cccc(C(=O)Nc2nonc2-c2ccc(OC(C)C)cc2)c1,20%,16%
COc1cccc(C(=O)Nc2ccccc2C(=O)OCc2cc(=O)n3nc(C)sc3n2)c1,-7%,-7%
CS(=O)(=O)Nc1cc(NC(=O)c2cc(-c3ccco3)on2)ccc1F,7%,179%[activator]
Cc1c(C)c2ccc(OCc3nn[nH]n3)c(C)c2oc1=O,1%,19%
O=C(NCCCSc1ccc(F)cc1)C1CCN(C(=O)c2cccs2)CC1,8%,7%
CCOC(=O)c1c(NC(=O)COc2ccc(OC)cc2)sc(C)c1Cc1ccc2c(c1)OCO2,0%,7%
Cc1nn(-c2ccccc2)c2c1cc1c(=O)[nH]c(=O)nc-1n2-c1cccc(Cl)c1,0%,-4%
CCCS(=O)(=O)Nc1cc2c(cc1NCc1ccccc1)n(C)c(=O)n2C,122%[activator],155%[activator]
CN1Cc2cc(C(=O)N3CCC(C4CCNCC4)CC3)ccc2N[C@@H](CC(=O)O)C1=O,-8%,-18%
CCN(C(=O)C1CCN(c2oc(-c3ccco3)nc2C#N)CC1)c1ccccc1,-9%,-18%
CCCCN(CC)C(=O)c1c[nH]c2ccc(S(=O)(=O)Nc3cccc(OC)c3)cc2c1=O,24%,19%
CSc1nc2c(c(=O)[nH]1)C(C(=O)Nc1cc(F)cc(F)c1)CC(=O)N2 (stereo not given),0%,3%
Cc1c(C(=O)N2CCCC2)oc2c1-c1nn(CC(=O)NCCCOC(C)C)cc1CC2,-9%,1%
CCOc1ccc(Nc2c(S(=O)(=O)c3ccc(C)cc3)cnc3ccccc23)cc1,11%,-7%
CCc1ccc(NC(=O)CSc2nc3ncccc3[nH]2)cc1,-22%&6%,33%&45%[activator]
COc1ccc(NC(=O)CSc2nnc(N)s2)cc1,-9%,19%
Oc1ccc(-c2nc3cc(C(F)(F)F)ccc3s2)cc1,4%,212%[activator]
CC(NC(=O)C1CCC1)C1CCCO1 (stereo not given),2%,8%
Cc1cccc(-c2nc3ccccc3c(C)c2C#N)c1,-4%,0%
CCOC(=O)c1c(NC(=O)CSc2nc(-c3ccccc3)cc(C(F)(F)F)n2)sc(C)c1C,-12%,-6%
COCCN1C(=O)C(=O)/C(=C(/O)c2ccc(C)cc2)C1c1ccc(Cl)c(Cl)c1 (stereo not given),-4%,0%
COCCCNC(=O)CSC1=Nc2ccccc2C2=NC(CCC(=O)NCc3ccccc3OC)C(=O)N12 (stereo not given),-6%,2%
C=C(C)c1cccc(C(C)(C)NC(=O)N(C)CCC#N)c1,7%,1%
CN(C)CCNC(=O)c1ccc(Cn2c(=O)c3cccn3c3cccnc32)cc1,-2%,-17%
COc1ccc(Cl)cc1NC(=O)CSC1=C(C#N)C(c2ccc(OC)c(OC)c2)CC(=O)N1 (stereo not given),1%,-11%
CC(C)(C)C(=O)/C=C/c1ccc([N+](=O)[O-])cc1,22%,66%[activator]
COC(CNc1nc2c(c(=O)n(C)c(=O)n2C)n1Cc1ccccc1Cl)OC,5%,11%
CC(C)n1nc(C(=O)NCC2CCOC2)c2ccccc2c1=O (stereo not given),-3%,10%
COc1ccc(OC)c(CN2CCC(Cc3ccccc3)CC2)c1,-7%,-17%
O=C(CCC1N=C2c3ccccc3N=C(SCC(=O)Nc3ccccc3F)N2C1=O)NCc1ccccc1 (stereo not given),12%,22%
CCC(=O)N1N=C(c2ccccc2NS(=O)(=O)c2ccccc2)CC1c1ccccc1 (stereo not given),-3%,-8%
C/C(=N/NC(=S)NC(C)C)c1ccccn1,?,0%
COc1cc(OC)cc(-c2cc3nc(C)c(CCC(=O)Nc4ccc(C(C)=O)cc4)c(C)n3n2)c1,-4%,?
COc1ccc(CNC(=O)c2cnn(-c3ccc(C)cc3)c2-n2cccc2)cc1OC,?,?
O=C(O)/C=C/c1ccc(-c2cccc(Cl)c2)s1,-1%,46%[activator]
COc1ccc(Nc2nnc(-c3ccc(OCC(=O)N4CCCCC4)cc3)c3ccccc23)cc1,1%,0%
CC(C)(C)NC(=O)NC(=O)COC(=O)c1cc(-c2cccs2)nc2ccccc12,8%,24%
O=C(CCCn1c(=O)c2cccn2c2ccc(F)cc21)NCCc1ccccc1,22%,43%[activator]
CCCCn1cc(S(=O)(=O)c2ccc(C)c(C)c2)c(=O)c2cc(F)c(N3CCCC(C)C3)cc21 (stereo not given),3%,-6%
O=C(O)c1ccc(F)c2ccccc12,14%,0%
Cc1ccc(C23CC4CC(CC(C(=O)O)(C4)C2)C3)cc1C,-12%,10%
COc1ccc(Br)cc1S(=O)(=O)Nc1cc(-c2cn3ccccc3n2)ccc1C,85%[activator],0%
CCOc1cc(/C=C2/NC(=O)NC2=O)cc(Cl)c1OCc1ccc(F)cc1,6%,5%
CCOC1OC(=O)C(Cl)=C1Nc1ccc(C)c(C)c1 (stereo not given),25%,17%
Cc1ccc(NC(=O)c2cc(Cl)ccc2Cl)nc1,36%[activator],210%[activator]
COc1cc(C2C3CCCCC3(O)CCN2Cc2ccccc2Cl)ccc1O (stereo not given),1%,-6%
COc1ccccc1CNc1ncnc2c1cnn2-c1ccc(C)cc1,11%,99%[activator]
COc1ccc(S(=O)(=O)NCc2ccc3c(c2)CCN3C(=O)c2ccccc2)cc1OC,28%,-17%
CC(=O)c1cc(F)c(N2CCN(C(=O)c3ccc(Cl)c(Cl)c3)CC2)cc1C,16%,2%
Cc1cccc(Nc2nc3ccccc3nc2NS(=O)(=O)c2ccc3c(c2)OCCO3)c1,1%,3%
COc1nc(C(=O)N2CCOCC2(C)C)cc2ccccc12,25%,16%
Cc1ccc(-c2nn(C)c(=O)c3ccccc23)cc1S(=O)(=O)NC(C)C,0%,?
CCN(CC)C(=O)Oc1ccc2c(=O)c(-c3ccc(OC)cc3)coc2c1,?,2%
O=C(CCSc1ccc(Cl)cc1)Nc1nc2c(s1)CCC2,-1%,-12%
CCc1cccc(C)c1NC(=O)CCS(=O)(=O)c1ccc2c(c1)oc(=O)n2C,-6%,-13%
CC(=O)N1CCCc2cc(S(=O)(=O)N3CCCC(C(=O)Nc4cccc(Cl)c4C)C3)ccc21 (stereo not given),11%,-5%

# Remaining list, next part.
SMILES,StopGo RLuc,StopGo FLuc
C#CCN(CC(=O)NC(=O)NCC)C1CCCCC1,-9%,1%
CCn1cc(C(=O)OCC(=O)Nc2cc(Cl)ccc2OC)c(=O)c2ccc(C)nc21,-9%,-7%
COc1ccc2c(ccn2CC(=O)Nc2ccc3c(c2)OCO3)c1,353%[activator],142%[activator]
Cc1ccc(N2CCN(C(=O)c3noc4c3CCc3sccc3-4)CC2)c(C)c1,12%,35%[activator]
CCN(CC)c1ccc(NC(=O)c2nccnc2N)cc1,9%,49%[activator]
Cc1cc(C)c2c(=O)c3c(oc2c1)C(=O)N(CCCOC(C)C)C3c1ccccc1F (stereo not given),-8%,0%
O=C(CN1CCN(Cc2ccccc2Cl)C1=O)NCc1ccccc1Cl,0%,17%
CC(Oc1ccc(Cl)cc1Cl)C(=O)Nc1ccc2oc(=O)ccc2c1 (stereo not given),0%,-4%
CC(C)n1nc(C(=O)OC/C(O)=C(\C#N)c2nc3ccccc3[nH]2)c2ccccc2c1=O,29%,51%[activator]
CCOc1ccc(C2c3[nH]c4ccccc4c3CCN2C(=O)Cc2cccc(OCC)c2OCC)cc1 (stereo not given),-10%,-25%
CC(C)c1ccc2oc(-c3ccc(Cl)c(NC(=O)c4cccs4)c3)nc2c1,-5%,23%
COc1ccccc1CNC(=O)C1CCCN(c2nn3cc(-c4ccc(C)cc4)nc3s2)C1 (stereo not given),-4%,43%[activator]
CC(=O)NCc1ccc(-c2csc(Nc3cc(C)cc(C)c3)n2)o1,-1%,54%[activator]
CCCCNC(=O)c1nn(-c2ccc(C)cc2)c(=O)n(C)c1=O,-9%,0%
O=C(c1ccc(-n2cccc2)cc1)N1CCN(S(=O)(=O)c2cc(C(F)(F)F)ccc2Cl)CC1,5%,2%
COc1ccc(S(=O)(=O)Oc2ccc3c(c2)O/C(=C\c2ccccc2OC)C3=O)cc1,12%,12%
COC(=O)c1cc(S(=O)(=O)Nc2ccc(F)cc2C)c[nH]1,111%[activator],7%
COC(=O)CN1CCN(c2nc3c(c(=O)[nH]c(=O)n3C)n2CCC(C)C)CC1,-8%,-3%
Nc1ccccc1C(=O)NCc1cccnc1,-13%,24%
Cc1ccc(Cl)cc1NC(=O)C(C)Oc1cccc(Cl)c1 (stereo not given),4%,10%

# 2 of the compounds above, with values under each structure.
# Every second line gives: StopGo RLuc, StopGo FLuc
> CC(C)n1nc(C(=O)OC/C(O)=C(\C#N)c2nc3ccccc3[nH]2)c2ccccc2c1=O
  29%, 51%[activator]
> CCOc1ccc(C2c3[nH]c4ccccc4c3CCN2C(=O)Cc2cccc(OCC)c2OCC)cc1 (stereo not given)
  -10%, -25%

# Back to the main list with the two entries that preceded the break.
SMILES,StopGo RLuc,StopGo FLuc
Nc1ccccc1C(=O)NCc1cccnc1,-13%,24%
Cc1ccc(Cl)cc1NC(=O)C(C)Oc1cccc(Cl)c1 (stereo not given),4%,10%
FC(F)(F)c1cccc(N2NC3(CCCCC3)NC2=S)c1,22%,87%[activator]
COc1cccc(C2C=C(c3ccc(C)cc3)Nc3c(C(=O)Nc4ccc(F)cc4)cnn32)c1OC (stereo not given),-4%,-14%
CCNc1nc2c(c(=O)[nH]c(=O)n2C)n1CCOC,-4%,3%
Cc1ccc(NCc2cccn2-c2nnc(N3CCC(C(=O)NCc4ccccc4C)CC3)s2)cc1,32%[activator],0%
COc1ccccc1NC(=O)CSc1nnc2c(n1)[nH]c1ccccc12,?,77%[activator]
COc1ccc(C2CC(=O)Nc3cc(OC)cc(OC)c32)cc1 (stereo not given),29%,-12%
CCc1ccc(N2C(=O)CSC23C(=O)N(Cc2cccc(OC)c2)c2ccccc23)cc1 (stereo not given),1%,5%
Clc1ccc(-c2noc(-c3cccnc3NCc3ccco3)n2)cc1,6%,118%[activator]
Cc1ccccc1C(=O)Nc1cccc(NC(=O)c2ccc(C(C)(C)C)cc2)c1,?,-13%
CCOC(=O)c1ccc(N2C(=O)c3[nH]nc(-c4ccc(C)cc4)c3C2c2cccs2)cc1 (stereo not given),?,?
Cn1c(=O)cc(SCC(=O)N2CCN(c3ccc(F)cc3)CC2)c2ccc(Cl)cc21,-11%,-8%
NC(=O)C1CCN(C(=O)CCc2c[nH]c3ccccc23)CC1,95%[activator],0%
Cc1nn(-c2nc3c(c(=O)n(CC(=O)C(C)(C)C)c(=O)n3C)n2C)c(C)c1C,-8%,7%
